# Compound activity from PubChem.
# IL-2 act: activates IL-2 in a cell-based reporter assay. IL-2 activation reporter assay, cell-based qHTS; stimulated with anti-CD3/CD4/CD28 beads; in transgenic mouse T cells. activation, % (series mostly up to about 46 µM). hit rate 0.065% among 360,000. AID 652025; in the data active = activation above about 50%; inconclusive = mostly about 30% to 49%; note: 0% is about no effect
#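 Readout is EGFP and DsRed signal by fluorescent plate cytometry after 18 h at 37 degrees C. Transgenic mouse T cells (750/well) received compound for 60 min before bead stimulation (anti-CD3, anti-CD4, anti-CD28); memory T cells served as non-tolerant control.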
# HEK293 tox: cytotoxic in the GLP-1 receptor inverse agonist counter-screen | HEK293 cAMP-luciferase reporter cells, luminescence, 24 h | Potency, µM (titrated, usually from 38.3 µM), without a hit: at the top dose activity change, negative = inhibition, most hits filed as inhibitors | hit rate 0.13% among 410,000 | AID 624418;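 note: loss of luciferase light is scored as toxicity; potency is the fitted concentration of half-maximal effect; % is set by controls: 0 for no effect and ±100 for the full control effect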
#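 A 23 nL compound transfer followed 12 hours of cell culture at 37 deg C; exposure then lasted 24 hr. Luciferase assay detection reagent was dispensed and plates read for luminescence after a 12 min room-temperature wait.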
# DRD3 agonist: activates the human D3 dopamine receptor. D3R DiscoveRx beta-arrestin cells, luminescence, 90 min. max activation, %. hit rate 0.58% among 410,000. AID 652048. P35462; in the data active = max activation above about 30%; note: 0% is about no effect; mostly tested at two doses, the higher about 12 µM
#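 Agonist mode: compounds and dopamine controls were applied to plated cells for 90 min at 37 degrees C after an overnight attachment at 1500 cells/well. Luminescent read-out followed 30 - 60 minutes at room temperature with DiscoveRx detection reagent.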
# GLP1R inv ag: acts as inverse agonist at human GLP-1 receptor; P43220; HEK293 GLP-1R CRE-luciferase, luminescence, 24 h; GLP-1R form is constitutively active; Potency, µM (doses to about 38.3 µM), without a hit: at the highest dose activity change, negative = inhibition, usual class: inhibitors; hit rate 1.6% among 410,000; note: potency is the fitted concentration of half-maximal effect; % is set by controls: 0 for no effect and ±100 for the full control effect; nearly all actives have a fitted effect of over 55% in size
#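 HEK293 cells stably co-expressing a cAMP-responsive luciferase reporter and constitutively active GLP-1R were seeded, incubated 12 h, then exposed to compounds for 24 h at 37 C. Luminescence was read 12 min after detection reagent; inverse agonists lower signal.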
# GLP1R ag: agonists of human GLP-1 receptor. P43220. HEK293 GLP-1R CRE-luciferase, luminescence, 4-6 h; cells express a hypersensitive GLP-1R form. Potency, µM (top dose mostly 45.6 µM), for the others: top-dose activation, hits mostly activators. hit rate 0.007% among 380,000. AID 624172; note: potency is the fitted concentration of half-maximal effect; % of control where 0% means no effect
# DRD3 antagonist: blocks the human D3 dopamine receptor. P35462. D3R cells, DiscoveRx beta-arrestin luminescence, antagonist mode; active compounds read low. max response, negative = inhibition, %. hit rate 2.5% among 360,000. AID 652054; in the data active = max response below about -50%; inconclusive = no clear call, values can overlap the other calls; note: % is set by controls: 0 for no effect and ±100 for the full control effect; mostly tested at two doses, the higher about 12 µM
#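 Cells expressing the human receptor were seeded at 1500 cells/well, incubated overnight at 37 degrees C in 5% CO2, then exposed to library compounds with dopamine controls for 90 minutes at 37 degrees C before luminescent detection.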
# PLK1 PBD inh: blocks phosphopeptide binding to human PLK1 polo-box domain; Plk1 PBD binding of FITC phosphopeptide, fluorescence polarization; AID 720504; hit rate 2.8% among 360,000; Potency, µM, for the others: max response, negative = inhibition, most hits filed as inhibitors; note: potency is the fitted concentration of half-maximal effect; series mostly up to about 57 µM; % is set by controls: 0 for no effect and ±100 for the full control effect; nearly all actives have a fitted effect of over 65% in size
# Target sequence (P53350 whole entry, looked up, the tested form may be a part): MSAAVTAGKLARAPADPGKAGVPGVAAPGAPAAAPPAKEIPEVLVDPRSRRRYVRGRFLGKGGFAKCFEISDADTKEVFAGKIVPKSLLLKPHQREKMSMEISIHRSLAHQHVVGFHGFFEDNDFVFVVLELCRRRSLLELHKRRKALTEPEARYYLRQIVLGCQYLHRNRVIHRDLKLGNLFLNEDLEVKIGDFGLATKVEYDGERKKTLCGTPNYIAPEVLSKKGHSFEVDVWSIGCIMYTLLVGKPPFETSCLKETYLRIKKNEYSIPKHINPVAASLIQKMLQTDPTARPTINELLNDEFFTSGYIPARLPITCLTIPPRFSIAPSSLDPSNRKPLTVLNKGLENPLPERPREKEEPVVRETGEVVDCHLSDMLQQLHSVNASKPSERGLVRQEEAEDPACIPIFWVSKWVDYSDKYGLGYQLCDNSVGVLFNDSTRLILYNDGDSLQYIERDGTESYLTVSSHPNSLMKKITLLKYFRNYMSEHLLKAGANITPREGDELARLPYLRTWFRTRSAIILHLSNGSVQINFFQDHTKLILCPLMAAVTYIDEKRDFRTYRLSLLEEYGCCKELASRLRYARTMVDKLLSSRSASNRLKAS
# * hit, by the source's call; ? = inconclusive; [ ] = remark or other dose. Unless noted, calls come from the whole dose curve; as a rule, active = well fitted curve in the direction sought with a large enough effect; inconclusive = small, poorly fitted or top-dose-only effect, or another doubt; inactive = no such curve, though single readings can be large; an effect the other way counts as inactive or inconclusive. This is a subset. The share of hits here may be higher or lower than overall.
SMILES,IL-2 act,HEK293 tox,DRD3 agonist,GLP1R inv ag,GLP1R ag,DRD3 antagonist,PLK1 PBD inh
COc1ccc(/C=C/C(=O)OCC(=O)c2ccc3c(c2)NC(=O)CO3)c(OC)c1,-2.4,-2%,-4,-2%,1%,-11,-7%
CC1=C(C(=O)Nc2ccccc2)C(c2cccnc2)n2nc(-c3cccnc3)nc2N1 (stereo not drawn),-0.4,-2%,0,-6%,-12%,26,-2%
Cc1noc(C)c1S(=O)(=O)Nc1cccc(C(F)(F)F)c1,0.4,8%,2,-18%,-1%,-12,-3%
Cc1cc(C)c(S(=O)(=O)Nc2cccc(-n3cnnn3)c2)c(C)c1,0.2,3%,8,9%,-1%,1,-11%
CCOC(=O)C1=C(C)Nc2nnnn2C1c1cccnc1 (stereo not drawn),1.6,-12%,5,0%,6%,8,0%
COc1cc(F)ccc1-c1cc(C(=O)NCc2cccc(Cl)c2)[nH]n1,-0.3,-3%,-10,?,11%,?,-8%
Cc1ccc(Cl)cc1-c1cc(C(=O)NCC2CCCCC2)[nH]n1,-0.4,4%,-23,-5%,5%,-70*,0%
CCCN1CCN(C(=O)CCCNC(=O)Cn2cnc3sc(C)c(C)c3c2=O)CC1,-0.7,8%,2,0%,-5%,14,?
O=C(Cc1c(Cl)cccc1Cl)OCC(=O)N1CCOCC1,-2.8,-5%,2,16%,-5%,-7,5%
CC1=C(C(=O)Nc2cccnc2)C(c2cccnc2)n2ncnc2N1 (stereo not drawn),-0.2,5%,1,-3%,-16%,11,-10%
COc1ccc(Cl)cc1NC(=O)c1noc2c1CCCC2,-0.2,15%,4,0%,5%,2,-11%
Cc1cc(C)c(S(=O)(=O)Nc2cccc(S(=O)(=O)N3CCOCC3)c2)c(C)c1,-1.6,8%,2,-10%,13%,15,-1%
COc1ccc(C2/C(=C(/O)c3ccccc3)C(=O)C(=O)N2C)cc1OC (stereo not drawn),0.0,4%,10,-19%,-1%,17,0%
COc1c(-c2ccc(O)cc2)oc2cc(O)cc(O)c2c1=O,0.2,1%,-5,-23%,2%,?,-6%
COc1ccc(NC(=O)c2noc3c2CCC3)cc1,-3.5,?,0,?,-9%,-30,?
COc1ccc(C(=O)COC(=O)[C@H](C)NS(=O)(=O)c2ccc(NC(C)=O)cc2)cc1OC,-1.6,-13%,4,20%,13%,3,3%
COc1ccc2cc3cc(C(=O)NCCCN4CCc5ccccc5C4)sc3nc2c1,-1.4,2%,-11,0%,2%,-65*,-3%
COC(=O)C1=NN(c2cccc3ccccc23)C2C(=O)N(c3ccccc3OC)C(=O)C12 (stereo not drawn),0.4,5%,-15,3%,-1%,-5,-20%
Cc1nn(-c2ccccc2)c(C)c1C(=O)NCc1ccccc1F,0.8,0%,-1,-4%,10%,-3,1%
Cc1c(C)c2ccc(OC(C)C(=O)N3C[C@H]4C[C@@H](C3)c3cccc(=O)n3C4)c(C)c2oc1=O (stereo partly drawn),0.9,2%,-13,20%,4%,-12,1%
CCN(CC)C(=O)CNc1ccc(C(F)(F)F)cc1[N+](=O)[O-],-0.2,-13%,2,-2%,7%,11,13%
CC(=O)Nc1ccc(C=NNC(=O)c2ccc(NS(=O)(=O)c3cccs3)cc2)cc1,1.6,17%,-6,7%,-3%,-20,-4%
C/C(=N\NC(=O)c1ccc(NS(=O)(=O)c2cccs2)cc1)c1ccccn1,-1.5,3%,5,41%[activator],3%,-4,-12%
Cc1sc2ncn(CC(=O)NCCCC(=O)N3CCC(C(N)=O)CC3)c(=O)c2c1C,-0.2,14%,3,40%[activator],6%,3,0%

# Arranged by length of the SMILES (falling): 14 of the compounds above
SMILES,IL-2 act,HEK293 tox,DRD3 agonist,GLP1R inv ag,GLP1R ag,DRD3 antagonist,PLK1 PBD inh
Cc1c(C)c2ccc(OC(C)C(=O)N3C[C@H]4C[C@@H](C3)c3cccc(=O)n3C4)c(C)c2oc1=O (stereo partly drawn),0.9,2%,-13,20%,4%,-12,1%
COc1ccc(C(=O)COC(=O)[C@H](C)NS(=O)(=O)c2ccc(NC(C)=O)cc2)cc1OC,-1.6,-13%,4,20%,13%,3,3%
COC(=O)C1=NN(c2cccc3ccccc23)C2C(=O)N(c3ccccc3OC)C(=O)C12 (stereo not drawn),0.4,5%,-15,3%,-1%,-5,-20%
CC(=O)Nc1ccc(C=NNC(=O)c2ccc(NS(=O)(=O)c3cccs3)cc2)cc1,1.6,17%,-6,7%,-3%,-20,-4%
Cc1sc2ncn(CC(=O)NCCCC(=O)N3CCC(C(N)=O)CC3)c(=O)c2c1C,-0.2,14%,3,40%[activator],6%,3,0%
CCCN1CCN(C(=O)CCCNC(=O)Cn2cnc3sc(C)c(C)c3c2=O)CC1,-0.7,8%,2,0%,-5%,14,?
COc1ccc(C2/C(=C(/O)c3ccccc3)C(=O)C(=O)N2C)cc1OC (stereo not drawn),0.0,4%,10,-19%,-1%,17,0%
COc1ccc2cc3cc(C(=O)NCCCN4CCc5ccccc5C4)sc3nc2c1,-1.4,2%,-11,0%,2%,-65*,-3%
CCN(CC)C(=O)CNc1ccc(C(F)(F)F)cc1[N+](=O)[O-],-0.2,-13%,2,-2%,7%,11,13%
CC1=C(C(=O)Nc2cccnc2)C(c2cccnc2)n2ncnc2N1 (stereo not drawn),-0.2,5%,1,-3%,-16%,11,-10%
COc1c(-c2ccc(O)cc2)oc2cc(O)cc(O)c2c1=O,0.2,1%,-5,-23%,2%,?,-6%
O=C(Cc1c(Cl)cccc1Cl)OCC(=O)N1CCOCC1,-2.8,-5%,2,16%,-5%,-7,5%
COc1ccc(Cl)cc1NC(=O)c1noc2c1CCCC2,-0.2,15%,4,0%,5%,2,-11%
COc1ccc(NC(=O)c2noc3c2CCC3)cc1,-3.5,?,0,?,-9%,-30,?

# Continuation.
SMILES,IL-2 act,HEK293 tox,DRD3 agonist,GLP1R inv ag,GLP1R ag,DRD3 antagonist,PLK1 PBD inh
CCc1ccccc1N/N=C(/C)c1c(O)cc(C)oc1=O,-0.4,0%[0.307 µM],-2,-14%[0.307 µM],0%,15,-28%
COC(=O)C1=C(C)Nc2nnnn2C1c1cccnc1 (stereo not drawn),1.9,7%,-9,0%,0%,0,-8%
CC1CCCN(C(=O)COC(=O)Cc2c(F)cccc2Cl)C1 (stereo not drawn),-1.5,11%,-1,1%,9%,2,0%
Cc1oc2c(F)c(F)c(F)c(F)c2c1S(=O)(=O)Nc1cccc(C(F)(F)F)c1,-3.4,-30%,40*,4µM*,1%,-12,38µM*
CC(C)NC(=O)CC(=O)NN=C1CCCCC1,0.9,-3%,2,13%,19%,19,-8%
Cc1ccc(S(=O)(=O)N(C)C)cc1N,-0.1,-3%,12,12%,1%,4,3%
COc1ccc(/C=C2/Sc3ccc(C(=O)N4CCOCC4)cc3NC2=O)cc1OC,-0.5,-10%,-4,15%,15%,0,27µM*
CCC(C)c1ccccc1OCCCNC1CCCC1 (stereo not drawn),-4.1,-20%,-3,?,0%,-82*,0%
CC(=O)c1ccc(NC(=O)c2cnsn2)cc1,-0.9,7%,9,?,0%,3,0%
O=[N+]([O-])c1cc(C(F)(F)F)ccc1NCCOc1ccccc1,-0.8,1%,-3,?,1%,-5,1%
CC1=C(C(N)=O)C(c2cccc(OCc3ccccc3)c2)n2nnnc2N1 (stereo not drawn),-0.6,-20%,-1,?,3%,-18,-9%
C=CCN(c1ccccc1)S(=O)(=O)c1cc2c(cc1C)NC(=O)CO2,-3.6,4%,-1,-24%,-3%,-22,6%
O=C(CSc1nc(O)cc(=O)[nH]1)N1c2ccccc2CCc2ccccc21,2.1,-4%,3,14%,0%,7,-11%
CN(CCOC(=O)/C=C/c1ccco1)Cc1ccccc1,-0.1,-15%,-1,1%,1%,-1,?
CS(=O)(=O)c1ccc2nc(NC(=O)C3CC(=O)N(c4ccccc4)C3)sc2c1 (stereo not drawn),-2.3,-3%,4,14%,0%,15,30µM*
CN(Cc1ccccc1)C(=O)CCS(=O)(=O)c1cc2c(cc1Cl)NC(=O)CO2,-1.4,-7%,1,14%,-4%,14,-8%
O=C(CNc1ccc(C(F)(F)F)cc1[N+](=O)[O-])OCC(=O)c1ccccc1,-2.3,-8%,-4,12%,-12%,10,-1%
